Cruzain inh noDet – inhibitors of Trypanosoma cruzi cruzain without detergent | purified cruzain, Z-FR-AMC fluorescence, no detergent | P25779 | actives 2.3% (n = 200,000) | Potency, µM, for the others: max response, negative = inhibition, most hits filed as inhibitors;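 further: plate controls were enzyme without inhibitor for no effect and buffer without enzyme for full effect; nearly all actives have a fitted effect of over 40% in size; top concentration of the series not given in the record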
Target sequence (P25779 123-467 limits assumed): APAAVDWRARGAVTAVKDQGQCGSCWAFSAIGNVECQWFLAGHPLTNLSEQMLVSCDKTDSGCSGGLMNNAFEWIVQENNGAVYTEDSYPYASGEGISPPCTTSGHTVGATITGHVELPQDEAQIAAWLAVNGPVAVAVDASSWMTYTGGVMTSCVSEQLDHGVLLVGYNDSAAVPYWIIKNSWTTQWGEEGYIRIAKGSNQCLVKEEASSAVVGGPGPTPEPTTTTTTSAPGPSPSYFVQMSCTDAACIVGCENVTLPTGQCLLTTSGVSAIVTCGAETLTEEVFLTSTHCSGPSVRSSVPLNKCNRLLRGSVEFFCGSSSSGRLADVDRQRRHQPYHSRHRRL
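Detergent-free condition (0.00005% Triton X-100) in acetate buffer pH 5.5 with DTT. 1.5 nM enzyme and compound were pre-mixed 15 min, then 2 uM Z-FR-AMC substrate added; reaction progress from fluorescence change between first and third reads (60 s).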
LASV entry inh – blocks Lassa virus binding to or entry into cells; Potency, µM (doses to about 37.9 µM), without a hit: at the highest dose activity change, negative = inhibition, hits mostly inhibitors; Lassa virus pseudotype entry inhibition, cell reporter; control for the full effect not named in the record; actives 1.2% (n = 300,000); active means well fitted inhibition curve with a large enough effect; inconclusive means small, poorly fitted or top-dose-only effect, or effect the other way; inactive means flat fitted curve, though single readings scatter; tested in HEK293 cells; further: on the % scale 0 is the no-effect control and ±100 the full control effect; nearly all actives have a fitted effect of over 50% in size; luciferase read-out
SARS PLpro yeast – inhibitors of SARS-CoV papain-like protease in yeast; S. cerevisiae expressing SARS-CoV PLpro, growth rescue; control for the full effect not named in the record; Potency, µM (highest dose often 32.9 µM), for the others: top-dose activity, positive = growth rescue; actives 0.19% (n = 330,000); AID 485353; active means well fitted rising curve with a large enough effect; inconclusive means small, poorly fitted or top-dose-only effect; inactive means no such curve, though single readings can be large or run the other way; further: 0% is about no effect; nearly all actives have a fitted effect of over 55% in size; growth read by luminescence after 48 h
Cruzain inh Det – blocks cruzain activity in presence of Triton detergent; P25779; purified cruzain, Z-FR-AMC fluorescence, 0.01% Triton; Potency, µM, for the others: max response, negative = inhibition, usual class: inhibitors; actives 0.43% (n = 200,000); AID 1478;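 further: plate controls were neutral wells for no effect and buffer without enzyme for full effect; nearly all actives have a fitted effect of over 40% in size; top concentration of the series not given in the record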
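Cysteine protease activity tested under reducing, mildly acidic conditions (100 mM sodium acetate pH 5.5, 5 mM DTT) plus 0.01% Triton X-100. Cruzain 1.5 nM; substrate Z-FR-AMC 2 uM; 15 min compound preincubation at room temperature.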
RE007 growth inh – less growth of the S. pombe RE007 Vpr strain. S. pombe RE007 Vpr strain, BacTiter-Glo ATP luminescence, 24 h; control for the full effect not named in the record. actives 0.21% (n = 360,000). Potency, µM (top dose mostly 92.2 µM), without a hit: at the highest dose activity change, negative = less growth. AID 651644; active = well fitted falling curve with a large enough effect; inconclusive = small, poorly fitted or top-dose-only effect; inactive = no such curve, though single readings can be large or run the other way;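 further: on the % scale 0 is the no-effect control and ±100 the full control effect; nearly all actives have a fitted effect of over 50% in size; the assay follows cell death caused by Vpr and the record does not say whether a fall means rescue or toxicity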
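Fission yeast RE007 carrying one integrated HIV-1 vpr copy, seeded at OD 0.01 in PMG+AL medium with 23 nL pinned compound. Grown 24 h at 30 degrees; viability read by BacTiter-Glo luminescence after 5 min.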
MARV entry inh – blocks Marburg virus binding to or entry into cells. Marburg virus pseudotyped entry inhibition, cell reporter; control for the full effect not named in the record; about a third of the inactives were read at about 46 µM. Potency, µM (titrated, usually from 37.8 µM), for inactives: top-dose activity change, negative = inhibition, most hits filed as inhibitors. actives 1.8% (n = 300,000). AID 540276; active = well fitted inhibition curve with a large enough effect; inconclusive = small, poorly fitted or top-dose-only effect, or effect the other way; inactive = flat fitted curve, though single readings scatter; tested in HEK293 cells; about a fifth of its hits are not listed in these tables; further: on the % scale 0 is the no-effect control and ±100 the full control effect; luciferase read-out
NS1 function inh – blocks influenza NS1 protein function; actives 0.4% (n = 270,000); AID 2326; Potency, µM (top dose mostly 46.1 µM), for inactives: at the top dose activity, positive = more growth; S. cerevisiae slowed by influenza A NS1, growth recovery by OD600; active means well fitted rising curve with a large enough effect; inconclusive means small, poorly fitted or top-dose-only effect; inactive means no such curve, though single readings can be large or run the other way; further: nearly all actives have a fitted effect of over 50% in size
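S. cerevisiae expressing influenza A NS1, grown in glucose, washed, then diluted 1:100 into pH 6.0 -URA galactose medium with 23 nl compound. Growth recovery read as OD600; NS1-free strain serves as control.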
StopGo reporter – lowers the luciferase signal of an FMDV 2A StopGo reporter | human cells with a luciferase reporter of 2A StopGo recoding; control for the full effect not named in the record | Potency, µM (doses to about 57.9 µM), inactives show top-dose signal change, negative = less light | actives 1.2% (n = 410,000) | AID 1159524; active = well fitted falling curve with a large enough effect; inconclusive = small, poorly fitted or top-dose-only effect; inactive = no such curve, though single readings can be large or run the other way; tested in HEK293T cells; further: on the % scale 0 is the no-effect control and ±100 the full control effect; nearly all actives have a fitted effect of over 45% in size; luciferase light after 4 h
Numbers without * were called inactive; ? = inconclusive; nt = no result given; & = joins results of further samples; [ ] = another dose, or the depositor's remark. Unless noted, the call rests on the fitted dose curve; in most records, active means well fitted curve in the direction sought with a large enough effect; inconclusive means small, poorly fitted or top-dose-only effect, or another doubt; inactive means no such curve, though single readings can be large; an effect the other way counts as inactive or inconclusive. Potency means the concentration at half of the fitted maximal effect. Random draw from the library, and some 4.6% of all compounds hit somewhere here.

SMILES	Cruzain inh noDet	LASV entry inh	SARS PLpro yeast	Cruzain inh Det	RE007 growth inh	MARV entry inh	NS1 function inh	StopGo reporter
O=[N+]([O-])c1cc(-c2nc3nc4ccccc4nc3n2CCc2ccccc2)cc([N+](=O)[O-])c1	-22%	?	-1%	-3.8%	1%	?	18%	-12%
CNc1ncnc2c1cnn2C1CCCCO1 (stereo not drawn)	nt	6%	nt	nt	0%	0%	nt	13%
CCN(CCn1cccn1)Cc1ccccc1OCC(O)CN1CCc2ccccc2C1 (stereo not drawn)	nt	nt	-1%	nt	-7%	nt	?	-1%
Cc1nnc(SCC(=O)Nc2ncc3c(n2)CC(C)(C)CC3=O)s1	-1%	-20%	7%	-0.2%	-4%	9%	5%	-16%
Cc1ccc(-c2nc(CS(=O)CC(=O)N3CCN(c4ccccc4)CC3)c(C)o2)cc1 (stereo not drawn)	?	?	2%	-0.7%	-9%	-22%&4%[46.1 µM]	18%	4%&-19%
O=C(NCCCN1CCOCC1)NC12CC3CC(CC(C3)C1)C2	-2%	16%	1%	1.1%	6%	8%	1%	-21%
Cc1cc(C)c(OCC(=O)OCC(=O)NC2CCC(C)CC2)c(C)c1 (stereo not drawn)	nt	6%	-2%	nt	11%	25%	nt	-2%
Cc1cc(=O)oc2ccc(OCC(=O)O)cc12	-10%	3%	-2%	0.0%	19%[3.69 µM]	6%	0%	-13%
Cn1cccc1C(=O)OCC(=O)Nc1ccc2c(c1)CCC2	-1%	16%	-3%	-1.6%	-12%	10%	-26%	70%[activator]
COc1cc(C2C(C(C)=O)=C(O)C(=O)N2Cc2ccccc2)ccc1O (stereo not drawn)	nt	nt	-1%	nt	-2%	nt	5%	-3%
N#C/C=C1\n2c(nc3ccccc32)OC12CCCCC2	-28%	2%	-21%	-1.7%	3%	9%	-71%	-18%
COc1ccc(C(=O)O/N=C(\C)c2ccccc2)cc1	8%	-1%	-3%	-7.2%	-1%	15%	-119%	-73%
Cc1[nH][nH]c(=O)c1C(c1ccc(Cl)cc1)c1c(C)[nH][nH]c1=O	nt	7%[46.1 µM]	-5%	nt	-1%	17%[46.1 µM]	11%	-18%
Cc1cc(C)c(S(=O)(=O)c2ccccc2C)c(Cl)n1	0%	-30%[14.3 µM]	4%	4.2%	-1%	-5%	-14%	-29%
Cc1ccc(S(=O)(=O)NC(=O)Nc2cc(C(C)(C)C)on2)cc1	nt	4%	1%	nt	-15%	?	3%	0%
Cc1ccc(C(OCC(O)CNCc2ccc(F)cc2)c2ccccc2)cc1 (stereo not drawn)	nt	nt	0%	nt	9%	nt	6%	?
Cc1ccc(C)c(OCC(O)CN2C(C)CCCC2C)c1 (stereo not drawn)	2%	?	4%	5.2%	-4%	?	1%	-9%
CS(=O)(=O)N(CC(=O)NCc1ccco1)c1ccccc1Cl	-4%	3%	4%	5.5%	0%	10%	1%	-11%
COc1ccc(OCC(=O)NNC(=O)CCc2ccccc2)cc1	nt	9%	-1%	nt	17%	9%[46.1 µM]	2%	-16%
Cc1cc(Nc2ccccc2C)n2nc(Cc3ccc(Cl)cc3)nc2n1	-7%	-19%[46.1 µM]	nt	-5.2%	nt	-2%[46.1 µM]	nt	-20%
COCCCNC(=O)CSc1nc2cc(OC)c(OC)cc2c2nc(-c3ccccc3)nn12	-5%	-5%[46.1 µM]	nt	-0.9%	nt	-13%[46.1 µM]	nt	-3%
CCN1CCN(c2ncc3c(n2)CCN(Cc2ccc(OC)c(OC)c2)C3)CC1	-12%	-13%[46.1 µM]	nt	-0.2%	nt	nt	nt	-24%
CCOC(=O)c1c(C)[nH]c(C)c1C(=O)CN1C(=O)NC(CC(C)C)C1=O (stereo not drawn)	1%	-11%	3%	4.7%	2%	0%	4%	4%
CN1CCN(C(=O)C(=O)Nc2c3c(nn2-c2ccc(Cl)cc2)CSC3)CC1	8%	2%[46.1 µM]	nt	0.9%	nt	nt	nt	1%
CC1(C)CC(=O)C=C(N2CCN(C3=CC(=O)CC(C)(C)C3)CC2)C1	-14%	nt	0%	1.9%	nt	2%	-5%	nt
Cc1cccc(NC(=O)C2CCN(C(=O)NCc3ccccc3)CC2)c1C	nt	21%[46.1 µM]	7%	nt	1%	3%[46.1 µM]	-5%	27%
c1ccc(CCc2ccncc2)cc1	nt	-10%[46.1 µM]	-4%	nt	-3%	2%[46.1 µM]	5%	-19%
CCCC1=NN2C(=N)/C(=C\c3cc(C)n(Cc4ccccc4)c3C)C(=O)N=C2S1	nt	nt	0%	nt	11%	nt	-2%	-14%
CCC(=O)N1CCc2cc(S(=O)(=O)CCC(=O)NCc3cccs3)ccc21	-12%	?	4%	1.8%	-17%	-20%	2%	17%
CCCS(=O)(=O)N1CCc2ccc(NC(=O)c3ccccc3Cl)cc2C1	nt	?	-1%	nt	-10%	-20%[46.1 µM]	-6%	14%
O=[N+]([O-])c1ccc(COc2cccnc2)cc1	nt	?	-2%	nt	8%	?	nt	0%
C=CCN1C(=O)C(O)(CC(=O)c2ccco2)c2cc(Br)ccc21 (stereo not drawn)	nt	nt	2%	nt	11%	nt	-5%	-17%
Cc1cc(C)c2[nH]c3nc(SCC(=O)O)nnc3c2c1	nt	nt	3%	nt	-1%	nt	27%	11%
C=CCn1c(-c2sccc2C)n[nH]c1=S	6%	1%	28%	3.1%	-4%	2%	12%	-7%
Nc1nc(NCc2ccccc2)nc(Nc2cccc(F)c2)c1[N+](=O)[O-]	32µM*	-9%	1%	5.8%	5%	-5%	3%	-1%
O=C(CCNC(=O)N1CC(=O)Nc2ccccc21)NCc1ccc(F)cc1	nt	nt	0%	nt	4%	nt	-11%	0%
CCOC(=O)N1CCN(C(=O)c2ccc3c(=O)n(Cc4ccc(Cl)cc4)c(=S)[nH]c3c2)CC1	27%	-7%	4%	1.3%	-10%	?	20%	?
Oc1cccc(C=NCc2ccccc2)c1O	0%	4%	-6%	0.2%	-14%	-10%	4%	-16%
Cc1cccc(C)c1NC(=O)c1sc(-n2nc(C)c(Cc3ccc4c(c3)OCO4)c2C)nc1C	-8%	2%[46.1 µM]	nt	-0.1%	nt	-15%[46.1 µM]	nt	-5%
CCc1ccc(NC(=O)C(CC)Sc2nc3cc4c(cc3c(=O)n2Cc2ccco2)OCO4)cc1 (stereo not drawn)	25µM*	?	-5%	6.5%	8%	?	5%	0%
CC(C)OC(=O)CC1C(=O)NCCN1C(=S)NC(=O)CCc1ccccc1 (stereo not drawn)	nt	-1%	-1%	nt	16%	8%	1%	-10%
CC(=O)Nc1ccc(/C(C)=N/NC(=O)c2ccc(CN3CCOCC3)cc2)cc1	nt	7%	-2%	nt	-10%	?	nt	-7%
Nc1nonc1-c1nc2ccccc2n1CC(=O)Nc1cccc(C(F)(F)F)c1	?	-27%[46.1 µM]	nt	-3.5%	nt	?	nt	?
O=C(CSc1nc2ccccc2c(=O)[nH]1)Nc1ccc(N2CCOCC2)cc1	nt	10%	-1%	nt	2%	-1%	10%	-22%
Cc1ccc(NC(=S)NCC2CCCO2)c(OC(F)F)c1 (stereo not drawn)	9%	10%	14%	0.7%	-1%	?	2%	8%
O=C(O)c1ccc(Nc2ncnc3c2cnn3Cc2ccccc2)cc1	nt	0%	-4%	nt	-4%	3%[46.1 µM]	nt	-2%
COc1cccc(/C=C2\SC(=O)N(CCC(=O)NNC(=O)c3ccccc3Cl)C2=O)c1	?	-18%	13%	-4.8%	-4%	-4%	11%	25%
CCOC(=O)Cc1nnc(NC(=O)COc2ccc(C)cc2)s1	?	-10%	-4%	2.0%	8%	-11%	1%	-7%
COc1ccccc1-c1nc2c(c(SCC(=O)N3CCCCC3)n1)Cc1c(CO)cnc(C)c1O2	nt	nt	-1%	nt	8%	nt	16%	?
C[C@@H](C(=O)Nc1ccc2ccccc2c1)[C@@H]1C[C@@]1(C)[C@@H](N)c1ccccc1	-29%	nt	nt	-0.2%	-21%	nt	nt	-14%
CSc1ccc(CNc2ncc(-c3cccc([N+](=O)[O-])c3)n2C)cc1	nt	nt	17%	nt	-11%	nt	1%	-23%
Cc1nc(/N=C(\N)N(C)C)[nH]c(=O)c1C	nt	nt	2%	nt	21%	nt	-6%	0%
COc1ccc(NC2=NCC(=O)N2c2ccccc2F)cc1	-6%	?	2%	4.0%	-9%	23%[46.1 µM]	2%	5%
CC(C)c1ccc(/C=C(\C#N)c2nc(-c3ccc(O)cc3)cs2)cc1	?	5%[46.1 µM]	nt	7.0%	nt	nt	nt	-23%
CC(C)OC(=O)/C(=C\c1ccc2c(c1)c1ccccc1n2C)NC(=O)c1ccccc1	?	-25%	8%	0.3%	-12%	?	10µM*	-4%
O=C(Nc1ccc(Br)cc1)C1CC(O)CN1C(=O)Oc1ccccc1 (stereo not drawn)	nt	3%[46.1 µM]	3%	nt	15%	0%[46.1 µM]	10%	13%
CS(=O)(=O)CC(=O)Nc1ccc2nc3n(c(=O)c2c1)CCCCC3	nt	2%	1%	nt	-8%	3%	5%	9%
CN=c1scc(C)n1/N=C/c1cc(Br)c(O)c(OC)c1	nt	?	-13%	nt	-11%	?	3%	31%[activator]
OCCC1CN(Cc2cc(F)ccc2-n2cccn2)CCN1C1CCCC1 (stereo not drawn)	nt	nt	-2%	nt	-17%	nt	4%	4%
CCc1ccc(NC(=O)c2sc3nc(C)c(Cl)c(C)c3c2NC(=O)c2ccccc2)cc1	-4%	2%[46.1 µM]	nt	1.4%	nt	10%[46.1 µM]	nt	-2%

Following part.
SMILES	Cruzain inh noDet	LASV entry inh	SARS PLpro yeast	Cruzain inh Det	RE007 growth inh	MARV entry inh	NS1 function inh	StopGo reporter
Cc1ccc(OCC(=O)N/N=C2\CC(=O)CC(C)(C)C2)c(Br)c1	nt	?	-5%	nt	0%	1%[46.1 µM]	25%	3%
CCC(=O)Nc1ccccc1Oc1ccccc1	-8%	-12%	-12%	2.7%	22%	-7%[46.1 µM]	-31%	3%
Cc1oc2ccc(OCc3ccc(F)cc3)cc2c1C(=O)O	-12%	-2%	-11%	-3.5%	11%	4%	-179%	?
C[C@H](NC(N)=O)C(=O)N1CCN(S(=O)(=O)c2ccc3ccccc3c2)CC1	nt	7%	1%	nt	-10%	-4%[46.1 µM]	9%	-15%
Cc1ccccc1NC(=O)CCN1CCN(Cc2ccccc2)CC1	-10%	-6%	24%	1.3%	-17%	-6%	15%	-19%

Bioassay records: PubChem, National Center for Advancing Translational Sciences (NCATS)
